VACV mCherry inh – vaccinia inhibition (mCherry reporter) | Vaccinia virus mCherry reporter infection, fluorescence; about a quarter of the inactives have no number | Potency, µM (top dose mostly 36.5 µM), inactives show top-dose activity change, negative = inhibition, actives largely listed as inhibitors | 310,000 compounds, 0.63% hits | AID 720579; active = well fitted inhibition curve with a large enough effect; inconclusive = small, poorly fitted or top-dose-only effect; inactive = no such curve, though single readings can be large or run the other way; tested in A549 cells; note: nearly all actives have a fitted effect of over 35% in size; inactives centre near -10
Vaccinia Venus – inhibitors of vaccinia virus (Venus reporter) | Potency, µM (top dose mostly 36.5 µM), for inactives: top-dose activity change, negative = inhibition, usual class: inhibitors | AID 720580 | Vaccinia virus Venus reporter expression, fluorescence | 330,000 compounds, 0.46% hits; active means well fitted inhibition curve with a large enough effect; inconclusive means small, poorly fitted or top-dose-only effect; inactive means no such curve, though single readings can be large or run the other way; tested in A549 cells; note: nearly all actives have a fitted effect of over 30% in size; inactives centre near -10
The depositor's hits bear a star; i = inactive; ? = inconclusive; . = no result given; & = joins results of further samples; [ ] = another dose, or the depositor's remark. % is set by controls: 0 for no effect and ±100 for the full control effect; potency is the fitted concentration of half-maximal effect.

SMILES | VACV mCherry inh | Vaccinia Venus
CCOc1ccccc1N1CCN(C(=S)Nc2ccc(S(=O)(=O)Nc3ncccn3)cc2)CC1 | -4% | -6%
CCc1nnc2c3ccccc3nc(Nc3cc(C)cc(C)c3)n12 | -16% | -10%
Cc1sc2ccccc2c1CNC[C@H]1O[C@@H](n2ccc(=O)[nH]c2=O)[C@H](O)[C@@H]1O | 6% | 8%
CN(C)C(=O)N1CCC(C(=O)NCc2ccc(F)cc2)CC1 | 1% | -8%
O=C(Nc1ccccc1)c1cc(C2CCCN(C(=O)OCc3ccccc3)C2)on1 (stereo not drawn) | i | -14%
CC(C)C(=O)N1CCN(c2ccc(NC(=O)COc3ccccc3[N+](=O)[O-])cc2)CC1 | -5% | -30%
c1cncc(-c2nc(NCC3COc4ccccc4O3)c3ccccc3n2)c1 (stereo not drawn) | ? | 11µM*
COCc1cc(C)nc(SCC(=O)Nc2cc3c(cc2C#N)OCO3)c1C#N | -11% | -5%
CCCN(CCC)S(=O)(=O)c1ccc(NC(=O)COc2ccccc2)cc1 | -10% | -17%
O=CNc1ccc2c(c1)Cc1cc([N+](=O)[O-])ccc1-2 | -1% | 1%
COc1ccc(OC)c(CNC(=O)c2nn(C)c3c2CS(=O)(=O)c2ccccc2-3)c1 | -8% | -7%
Cc1cc(S(=O)(=O)N2CCCC2)ccc1OCC(=O)NCc1ccco1 | i | -7%
Cc1cccc(C(=O)NC(C(=O)Nc2ccc(S(=O)(=O)Nc3nccs3)cc2)C(C)C)c1 (stereo not drawn) | -12% | -10%
COc1cccc(-c2ncc3ccccc3c2COC(=O)c2ccc(C(F)(F)F)cc2)c1 | -10% | -25%
CC(C)CCNC(=O)c1ccc(Cn2c(SCC(=O)NC(C)C)nc3ccccc3c2=O)cc1 | -1% | 8%

Single records, from the list above. Values in the order: VACV mCherry inh | Vaccinia Venus
COCc1cc(C)nc(SCC(=O)Nc2cc3c(cc2C#N)OCO3)c1C#N in the list: -11% | -5%
CN(C)C(=O)N1CCC(C(=O)NCc2ccc(F)cc2)CC1 in the list: 1% | -8%
CCOc1ccccc1N1CCN(C(=S)Nc2ccc(S(=O)(=O)Nc3ncccn3)cc2)CC1 in the list: -4% | -6%
CC(C)CCNC(=O)c1ccc(Cn2c(SCC(=O)NC(C)C)nc3ccccc3c2=O)cc1 in the list: -1% | 8%
COc1cccc(-c2ncc3ccccc3c2COC(=O)c2ccc(C(F)(F)F)cc2)c1 in the list: -10% | -25%

Next part
SMILES | VACV mCherry inh | Vaccinia Venus
Cn1c(SCC(=O)Nc2ccc(NC(=O)c3cccs3)cc2)nnc1-c1ccncc1 | -3% | -9%
Cc1nnc(NC(=O)c2c(-c3ccccc3)noc2C)s1 | . | -14%
COc1ccc(CCC(=O)NCc2cn3ccc(C)cc3n2)cc1 | -5% | -7%
CC(=O)c1ccc(S(=O)(=O)N2CCN(c3nc(-c4cccs4)nc4ccccc34)CC2)cc1 | -22% | -11%
Cc1cccc(C(=O)NCC(=O)OCc2cc(=O)n3nc(CC(C)C)sc3n2)c1 | -2% | 2%
O=S(=O)(NC1CCc2ccccc21)c1ccc(S(=O)(=O)N2CCCC2)cc1 (stereo not drawn) | -25% | -17%
O=C(O)c1ccc(N/N=C2/CCSc3ccc(F)cc32)cc1 | ? | -7%
CCOc1ccccc1CN1CCc2nc(Nc3ccc4c(c3)OCCO4)ncc2C1 | -17% | -14%
CCOC(=O)C1Nc2ccc(OC(F)(F)F)cc2C2C=CCC12 (stereo not drawn) | -11% | -23%
CNC(=O)Cn1c(=O)c2cccn2c2ccc(F)cc21 | -1% | -2%
Cc1nc(-c2ccc(C(=O)NCCO)cc2)cs1 | -2% | 1%
CCCn1c(=O)c2ccccc2n2c(SCC(N)=O)nnc12 | -2% | 3%
COc1ccc(OC)c(/C=N/n2c(-c3n[nH]c4c3CCC4)n[nH]c2=S)c1 | -24% | -18%
CCOc1ccc(C(=S)N2CCOCC2)cc1 | . | ?
O=c1cc(O)n(-c2ccc(F)cc2)c(=S)[nH]1 | -13% | -20%
CC1CCc2nn(CC(=O)NC3CCCC3)cc2C1 (stereo not drawn) | 2% | 1%
Cc1cc2c(cc1C)NC(CC(=O)Nc1cccc(C)c1C)C(=O)N2 (stereo not drawn) | -21% | -7%
CCCCN(CC)CCCNC(=S)Nc1ccc2nc(N3CCN(C)CC3)cc(C)c2c1 | -19% | -9%
O=C(CSc1nnc(CNC(=O)c2cccs2)o1)Nc1ccc2c(c1)OCO2 | 9% | 3%
Cc1cc2nc3c(=O)n(C)c(=O)n(C)c3nc2cc1N=CN(C)C | -15% | 11%
Cn1c(=O)c(NC2CCCCC2)c2c3c(cccc31)C(=O)c1ccccc1-2 | i | 8%
COC(=O)c1ccccc1NS(=O)(=O)c1cn(C)c(=O)n(C)c1=O | i | 6%
CCCCN(C(=O)C1CCN(C(=O)c2ccccc2C)CC1)c1c(N)n(CCC)c(=O)[nH]c1=O | -12% | -9%
CC(C)(CNC(=O)c1ccccc1NS(C)(=O)=O)N1CCCCC1 | -5% | 2%
C/C(=N\N(c1ccccc1)c1ccccc1)c1ccc(O)cc1 | -27% | -21%
Cc1ccc2nc(/C=C/c3cccc(F)c3)ccc2c1 | -11% | -3%
CC1C(c2cccs2)=[N+]([O-])C(C)(C(=O)c2cccs2)N1O (stereo not drawn) | i | -10%
O=C(Nc1ccc(Br)cn1)c1ccc2nccnc2c1 | -22% | -17%
O=C(Nc1ccc(S(=O)(=O)N2CCCC2)cc1)c1ccc([N+](=O)[O-])cc1 | i | -9%
O=C(Nc1cccnc1Cl)c1cnn2c1NC(=C1CC1)C=C2C(F)F | -18% | -21%
CCCN(CCC)CCCNC(=O)C1CCN(S(=O)(=O)c2cccc3nsnc23)CC1 | -5% | -7%
Cc1csc(NC(=O)C2CCN(S(=O)(=O)c3ccccc3F)CC2)n1 | -15% | -4%
Clc1nc(-c2ccccn2)nc2scc(-c3ccccc3)c12 | -8% | -15%
Fc1cccc(CN2CCSCC2)c1 | -20% | -5%
CN(Cc1ccccc1)C(=O)c1ccc(CSc2nc3cccnc3n2Cc2ccccc2)cc1 | ? | ?
COc1ccc(-c2cc(-c3ccc(N)cc3)nc(N)c2C#N)cc1OC | ? | -21%
CCOC(=O)c1c(NC(=O)COC(=O)CNC(=O)c2ccc(Cl)cc2Cl)sc(C(=O)N(C)C)c1C | -13% | -12%
COC(=O)c1cc2oc(C)cc2n1Cc1ccc(Br)cc1F | -18% | -13%
CC(C)Oc1ccc(S(=O)(=O)N2CCOCC2)cc1NC(=O)Cc1ccsc1 | -9% | -15%
CCOC(=O)CCCCCC(=O)Nc1ccc2c(c1)C(=O)N([C@@H](C)CO)C[C@H](C)[C@H](CN(C)C(=O)Nc1ccc(C(F)(F)F)cc1)OCCCC[C@H](C)O2 | -18% | -3%
COc1cccc2sc(N(Cc3cccnc3)C(=O)c3ccc4c(c3)OCCO4)nc12 | -8%[7.34 µM] | -10%[7.34 µM]
Cc1ccc(C(=O)NCCSC(C)(C)C)cc1 | . | -19%
CC(=O)Nc1cc2c(cc1[N+](=O)[O-])-c1ccccc1C2O (stereo not drawn) | -11% | -4%
COc1ccc2c(c1)c(=O)c(C(=O)c1ccc(F)cc1)cn2CC(=O)Nc1ccc(F)cc1 | -3% | -21%
CCN(CC)c1ccc2ccc(=O)oc2c1 | -13% | -1%
Cc1ccc(OCCC(=O)NNC(=O)c2ccc(Br)cc2)cc1 | -14% | -4%
OC(c1cccnc1)c1nc(/C=C/c2ccc(C(F)(F)F)cc2)cs1 (stereo not drawn) | ? | ?
CN1c2ccccc2C(=O)/C(=C\Nc2ncccn2)S1(=O)=O | i | -21%
COc1ccc(C(=O)NNC(=O)CCn2nnc(-c3ccc(C)cc3)n2)cc1OC | 8% | -1%
CC1=CC(C)(C)N(S(=O)(=O)c2ccc(F)cc2)c2ccc(C)cc21 | ? | ?
Cc1ccc(CNC(=O)CCCn2nc(C)c3c(C)n(-c4ccccc4)nc3c2=O)cc1 | -25% | -10%
Cc1ccc(Cn2c(C)cc3c(c2=O)C(c2cccs2)C(C#N)=C(N)O3)cc1 (stereo not drawn) | -11% | -2%
CCOc1ccc(-c2noc(CCC(=O)O)n2)cc1 | -3% | -3%
Cc1cccc(CSc2nnc(NC(=O)CSc3nnc(C)s3)s2)c1 | . | -14%
CC(OC(=O)c1ccncc1)C(=O)Nc1cc(S(=O)(=O)N2CCCCC2)ccc1Cl (stereo not drawn) | -24% | -17%
Cc1ccccc1C(=O)NCC(=O)N1CCN(C/C=C/c2ccccc2)CC1 | -2% | -17%
COCCn1ccc2c(OCC(=O)Nc3ccccc3OC)cccc2c1=O | -9% | -21%
COc1cc(C=NNC(=O)C(=O)Nc2cccc(Cl)c2)cc(OC)c1O | -20% | -28%
COc1cccc(C(=O)NCC(=O)n2nc(C)cc2C)c1 | . | 10%
O=c1cc2nc(-c3ccccc3)nc(SCc3cccc(Br)c3)n2[nH]1 | -7% | 0%

The results go on:
SMILES | VACV mCherry inh | Vaccinia Venus
CC(C)NC(=O)CN(Cc1ccc2c(c1)OCO2)C(=O)CCC(=O)Nc1ccccn1 | -14% | -22%
COc1ccccc1-c1nnc(SCC(=O)Nc2ccccc2F)o1 | -15% | -9%
COc1cc(C(=O)NCCCc2nc3ccccc3n2CC(C)C)cc(OC)c1OC | -8% | 0%
Cn1c(=S)n(/N=C/c2cccs2)c2ccccc21 | -12% | -5%
CCOC(=O)C1=C(COC(=O)C2CC(=O)N(c3ccccc3F)C2)NC(=O)NC1C (stereo not drawn) | -5% | -6%
Cc1ccc(C)c(OCc2cc(C(=O)N3CCN(c4cnccn4)CC3)no2)c1 | -3% | -18%
CC1(C)CC2CCC(O)C2C(CCO)N1 (stereo not drawn) | i | -4%
CN1CCN(CCNC(=O)c2cnn(-c3ccc(Cl)cc3)c2C2CCN(C(=O)OC(C)(C)C)CC2)CC1 | -16% | -8%
Cc1cc(C(=O)COC(=O)c2ccc(O)cc2)c(C)n1CC1COc2ccccc2O1 (stereo not drawn) | -26% | -28%
Cc1cc2[nH]c(=O)c(=O)[nH]c2cc1S(=O)(=O)Nc1cccc(C(F)(F)F)c1 | -3% | 1%
CC1(C(=O)Nc2cccnc2)Cc2c(-c3ccccc3)ccnc2O1 (stereo not drawn) | 4% | -19%
O=C(CN1C(=O)c2cccc3cccc1c23)NC1CCCCC1 | -3% | 1%
COc1ccc(NC(=O)CSc2nnc(-c3cccnc3)s2)cc1 | i | -11%
CCC1CCCCN1S(=O)(=O)c1ccc(NC(=O)c2ccncc2)cc1 (stereo not drawn) | -15% | ?
CCCCCOC(=O)CC(C(=O)OCCCCC)N1CCCCC1 (stereo not drawn) | . | -19%

4 entries out of the list, sorted by count of non-hydrogen atoms, rising:
SMILES | VACV mCherry inh | Vaccinia Venus
CC1(C)CC2CCC(O)C2C(CCO)N1 (stereo not drawn) | i | -4%
O=C(CN1C(=O)c2cccc3cccc1c23)NC1CCCCC1 | -3% | 1%
Cc1cc2[nH]c(=O)c(=O)[nH]c2cc1S(=O)(=O)Nc1cccc(C(F)(F)F)c1 | -3% | 1%
CC(C)NC(=O)CN(Cc1ccc2c(c1)OCO2)C(=O)CCC(=O)Nc1ccccn1 | -14% | -22%

Later entries:
SMILES | VACV mCherry inh | Vaccinia Venus
Clc1ccc(-c2ccnc3nc(N4CCOCC4)nn23)c(Cl)c1 | -24% | -8%
Cc1cccc2c(-c3ccccc3)cc(=O)[nH]c12 | ? | -21%
CC(=O)Nc1ccc(CN(C)c2c(C)nc3ccc(C(=O)N4CCN(C(C)=O)CC4)cn23)cc1 | 0% | 4%
CC1=CC(c2ccccc2)=Nc2ccc(C)cc2N1 | i | -12%
Clc1ccccc1-c1nnc(CNC2CC2)o1 | i | -7%
C[C@H](CO)N1C[C@H](C)[C@@H](CN(C)S(=O)(=O)c2cn(C)cn2)Oc2c(NC(=O)Nc3ccc4c(c3)OCO4)cccc2C1=O | i | -2%
COc1ccc(C)cc1N(CC(=O)Nc1ccc2c(c1)OCCO2)S(C)(=O)=O | i | -11%
Cc1cccc(NC(=O)CSc2n[nH]c(-c3cccnc3)n2)c1 | -13% | -3%
O=C(CCNC(=O)c1ccc(Br)cc1)Nc1ccc(S(=O)(=O)N2CCCCC2)cc1 | -14% | -11%
Cc1ccc(C)c(Cn2c3ccccc3c3cnn(CC(=O)NC(C)c4ccccc4)c(=O)c32)c1 (stereo not drawn) | -28% | -17%
Cc1c(C(=O)Nc2ccc(F)c(Cl)c2)oc2ccc(S(=O)(=O)N(C)C3CCCCC3)cc12 | -18% | -15%
Cc1cc(NCc2cccnc2)no1 | i | 2%
O=[N+]([O-])c1ccc(N/N=C\c2ccccc2OCc2ccccc2)cc1 | -20% | -8%
CSc1cccc(NC(=O)CCCNC(=O)c2ccc(Cl)cc2)c1 | -19% | -7%
CCCCc1nc(Cl)c(CO)n1Cc1ccc(-c2ccccc2-c2nn[nH]n2)cc1 | -11% | -14%&-11%
Cc1ccc(Oc2ccc(C(=O)NC3CCSC3=O)cn2)cc1 (stereo not drawn) | . | -9%
CCOC(=O)NC(=O)c1cn(CCN(C)C)c(=O)[nH]c1=O | i | -2%
COc1cc(OC)cc(OCC(O)Cn2cnc3cc(C)c(C)cc32)c1 (stereo not drawn) | i | -4%
C(=Cc1cnnc2ccccc12)c1ccccc1 | -3% | -16%
Cc1cccc(OCC(=O)N/N=C/c2ccc3c(c2)OCO3)c1 | 8% | 7%
Cc1ccc(C(=O)NNC(=O)c2n[nH]c(=O)c3ccccc23)cc1C | -18% | -16%
Cc1cccc(OC(=O)NCCOC(=O)N(O)c2ccc(Cl)cc2)c1 | -20% | -21%
CCCCN1CC[C@H]2C=CC[C@@H](C(=O)Nc3ccc(OC)cc3)[C@H]2C1=O | -19% | -8%&-13%

Source: PubChem (National Center for Advancing Translational Sciences (NCATS))
